Screens (PubChem)
KCNQ2 inh – KCNQ2 potassium channel inhibitors, primary screen, cell-based, CHO-K1, FluxOR thallium flux, B-score (AID 2156) | 20 min; stronger effect = lower value; only compounds with negative scores are shown here; some inactives read as strong as hits | 310,000 tested, 1.1% active | B-score at 10 µM;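 active means fluorescence ratio B-score at most minus 3 library SDs, with starting brightness B-score within 2 library SDs, cut at about -5.5 in these data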
Target sequence (O88943 whole entry, looked up): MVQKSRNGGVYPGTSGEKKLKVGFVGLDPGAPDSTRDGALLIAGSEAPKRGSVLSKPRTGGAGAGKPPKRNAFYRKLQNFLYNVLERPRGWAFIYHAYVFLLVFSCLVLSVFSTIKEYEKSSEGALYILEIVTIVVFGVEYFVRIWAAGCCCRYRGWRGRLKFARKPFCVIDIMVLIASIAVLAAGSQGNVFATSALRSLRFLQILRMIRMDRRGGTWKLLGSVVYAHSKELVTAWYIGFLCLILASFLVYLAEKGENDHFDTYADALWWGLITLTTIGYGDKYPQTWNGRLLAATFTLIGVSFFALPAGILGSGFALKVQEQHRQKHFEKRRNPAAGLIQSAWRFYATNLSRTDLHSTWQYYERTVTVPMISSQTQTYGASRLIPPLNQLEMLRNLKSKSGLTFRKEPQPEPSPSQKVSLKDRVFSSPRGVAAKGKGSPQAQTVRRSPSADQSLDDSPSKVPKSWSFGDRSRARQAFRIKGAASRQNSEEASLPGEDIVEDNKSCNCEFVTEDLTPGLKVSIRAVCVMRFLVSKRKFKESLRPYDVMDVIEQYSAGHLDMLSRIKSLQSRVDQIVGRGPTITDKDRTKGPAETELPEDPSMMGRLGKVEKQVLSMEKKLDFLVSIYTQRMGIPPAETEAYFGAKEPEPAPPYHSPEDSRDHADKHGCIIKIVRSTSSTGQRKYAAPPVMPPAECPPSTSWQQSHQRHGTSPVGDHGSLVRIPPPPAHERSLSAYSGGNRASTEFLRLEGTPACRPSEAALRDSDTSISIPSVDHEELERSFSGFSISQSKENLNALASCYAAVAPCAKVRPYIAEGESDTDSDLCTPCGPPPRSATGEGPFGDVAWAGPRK
KCNQ2 inh baseline – recorded beside KCNQ2 inh, whose call it bears; B-score; measured here: initial fluorescence intensity artifact check;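 brightness before thallium and not channel activity; 0 = typical well and far values either way flag optical interference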
Starred values were filed as active, the others as inactive; i = inactive. This is a subset. The share of hits here may be higher or lower than overall.

item	KCNQ2 inh	KCNQ2 inh baseline	Compound
1	i	0.47	CCN(CC)CCCNc1oc(-c2cccc(Cl)c2)nc1C#N
2	i	-0.87	Cc1cc2[nH]c3c(c[n+](C)c4ccccc34)c2cc1C
3	i	0.09	CCOc1ccccc1N(C(=O)CNC(=O)c1ccco1)C(C(=O)NC(C)(C)C)c1ccncc1 (configuration not stated)
4	i	-0.91	Cc1ccc(OC(=O)c2c(C)nn(-c3ccccc3)c2C)cc1
5	i	-0.09	CC(C)CNC(=O)C(=O)Nc1ccc2c(c1)N(S(=O)(=O)c1cccs1)CCC2
6	i	-0.98	COC(=O)c1ccc(N)c(N=CC2=C(O)CC(C)(C)CC2=O)c1
7	i	0.84	CCOC(=O)CC(=O)CSc1nc2c(c(-c3cccs3)c1C#N)CCC2
8	i	-0.13	Cc1ccccc1N1C(S)=C(C#N)C(=O)NC1c1ccco1 (configuration not stated)
9	i	-1.92	Clc1cccc(NCc2nnc(SCc3ccc(Cl)cc3Cl)o2)c1
10	i	2.21	CC(C)NC(=O)N1CCN(c2ccncc2S(=O)(=O)N2CCCCC2)CC1
11	i	0.04	COC(=O)CN1C(=S)N(c2ccc(OC)cc2)C(=O)C1CC(=O)Nc1ccc(F)cc1 (configuration not stated)
12	i	-0.4	CCN(CC)CCn1nc2c3c(cccc3c1=O)-c1ccccc1-2
13	i	0.03	CC(C)c1ccc(-c2c(C#N)c(N)nc(SCC(=O)N3CCCCC3)c2C#N)cc1
14	i	-0.43	CCOC(=O)N1CCN(C(=O)Nc2cccc3ccccc23)CC1
15	i	0.65	COc1ccc(CCNC(=O)C2CC(=O)N(c3ccc(C(C)(C)C)cc3)C2)cc1OC (configuration not stated)
16	i	0.63	O=C(NNC(=O)c1ccc(O)cc1O)c1ccc(-c2ccccc2)cc1
17	i	-1.1	CCOc1cc(C)c(-c2onc(C(F)(F)F)c2-c2csc(C)n2)c(O)c1
18	i	0.3	COc1ccc(CCNC(=O)c2ccc(N(C)S(=O)(=O)c3ccccc3)cc2)cc1
19	i	-0.14	O=C(Cn1c(N2CCN(c3ccccc3)CC2)nc2ccccc21)c1ccccc1
20	i	-1.54	CCOC(=O)Cn1c(-c2nonc2NC(=O)c2ccccc2F)nc2ccccc21
21	i	-1.53	CCC(C)/C(C)=N/NC(=O)c1cn(-c2ccccc2)nc1-c1ccccc1 (configuration not stated)
22	i	-0.65	COc1ccc(-n2nc(C(=O)NCC(=O)N(C)Cc3ccccc3)c3ccccc3c2=O)cc1OC
23	i	-1.69	CCOc1c(C#N)c(C#N)c2nc(C)cc(C)n12
24	i	2.41	CC(C)C(=O)Nc1ccc2c(c1)nc(CCN1CCN(c3ccccn3)CC1)n2C
25	i	-0.02	O=C(Nc1ccncc1)c1cccc(S(=O)(=O)N2CCN(c3ccc(F)cc3)CC2)c1
26	-5.57*	-0.5*	O=C(CN1C(=O)CC(c2ccccc2)=Nc2ccccc21)NCc1ccccc1
27	i	0.59	O=C(COC(=O)[C@@H]1CCCN1C(=O)c1cccs1)NCCc1ccccc1
28	i	0.02	Cc1cc(C)c2ccc3c(C)c(C)nc3c2[nH]1
29	i	1.62	Cc1ccc(NC(=O)c2ccc(CNc3c(N4CCOCC4)c(=O)c3=O)cc2)cc1
30	i	3.18	Cc1cc(C(C)(C)C)ccc1OCCn1ccnc1

The closing 4 records of the part before lead into the next.
item	KCNQ2 inh	KCNQ2 inh baseline	Compound
27	i	0.59	O=C(COC(=O)[C@@H]1CCCN1C(=O)c1cccs1)NCCc1ccccc1
28	i	0.02	Cc1cc(C)c2ccc3c(C)c(C)nc3c2[nH]1
29	i	1.62	Cc1ccc(NC(=O)c2ccc(CNc3c(N4CCOCC4)c(=O)c3=O)cc2)cc1
30	i	3.18	Cc1cc(C(C)(C)C)ccc1OCCn1ccnc1
31	i	-0.15	CCOc1ccc(CCNC(=O)CCNS(=O)(=O)c2ccc3c(c2)CCN3C(C)=O)cc1OCC
32	i	1.12	COc1cc(OC)cc(C(=O)OCC(=O)Nc2ccc(F)cc2F)c1
33	i	-0.01	Cc1cc(C)c(C#N)c(SCc2nc3ccccc3[nH]2)n1
34	i	-2.75	COc1ccc(CNS(=O)(=O)c2ccc(Br)s2)cc1
35	i	0.06	CCn1c(SCC(=O)N2CCCc3ccccc32)nnc1-c1c[nH]c2ccccc12
36	i	2.09	CCCCN(CC(=O)NCc1ccc(F)cc1)C(=O)c1ccco1
37	i	-0.97	CCCOc1cccc(C(=O)NC(=S)Nc2cccc(C(F)(F)F)c2)c1
38	i	-0.56	CCS(=O)(=O)n1nc(-c2ccc(OC)cc2)nc1SC
39	i	-0.01	O=C(O)CC1CCCC(c2ccccc2)C1=O (configuration not stated)
40	i	-1.12	O=C(NC(CO)Cc1ccccc1)c1ccccc1 (configuration not stated)
41	-10.7*	-2.62*	Cc1cc(Oc2cnn(C(C)(C)C)c(=O)c2Cl)cc(C(C)C)c1
42	i	-0.24	CC(C)c1nnc(NC(=O)COc2ccc3ccccc3c2)s1
43	i	-0.34	CC(=O)N1N=C(c2ccc(Br)cc2)OC1(C)CC(=O)Nc1ccccc1 (configuration not stated)
44	i	-0.12	COc1cccc(CC2(CO)CCCN(Cc3cn[nH]c3-c3ccc(F)cc3)C2)c1 (configuration not stated)
45	i	0.15	N#Cc1c(N2CCOCC2)nc(-c2ccco2)c2c1CCCC2
46	i	0.16	Cc1nc(-c2ccc(S(=O)(=O)N3CCOCC3)cc2)cs1
47	i	-0.71	Cc1ccc(-c2nc(C)sc2CC(=O)OCC(=O)Nc2ccc(F)c(Cl)c2)cc1
48	i	-1.04	O=C(Cc1cc(=O)oc2cc(O)ccc12)NCC1CCC(C(=O)O)CC1 (configuration not stated)
49	i	2.3	O=C(NCCN1CCOCC1)c1cc(Br)ccc1Cl
50	i	0.04	Cc1ccc(C(=O)c2ccccc2C(=O)OCC(=O)NC(C)(C)C)cc1
51	i	1.3	COc1ccc(NC(=O)c2cc(-c3ccc(C)o3)nc3ccccc23)cc1
52	i	-0.35	CN1CCc2c(sc(NC(=O)c3ccc([N+](=O)[O-])o3)c2C(N)=O)C1
53	i	3.32	O=C(c1csc2c1CCCC2)n1cccn1
54	i	-1.59	CCOC(=O)C1=C(C)NC2=C(C(=O)CC(C)(C)C2)C1c1ccc2c(c1)CCCN2C (configuration not stated)
55	i	-0.46	CC1SC(c2ccc(Cl)cc2)NC1=O (configuration not stated)
56	i	-0.18	C[C@H](NC(=O)c1nc[nH]c1C(=O)NCC(=O)OCc1ccccc1)c1ccccc1
57	i	-0.01	Cc1ccccc1N1CCN(C2CCCN(C(=O)c3snnc3C)C2)CC1 (configuration not stated)
58	i	-2.18	O=C1C(Cc2ccc(Br)cc2)SC(=Nc2ccccc2)N1c1ccccc1 (configuration not stated)
59	i	0.25	CN(O)/C=C1\C(=O)Nc2ccccc21
60	i	0.12	O=C1NC(=O)C(CC(=O)N(Cc2cccs2)C2(C(=O)NC3CCCC3)CCCCC2)N1 (configuration not stated)

Profiles as entered above. Values in the order: KCNQ2 inh, KCNQ2 inh baseline
`CCCCN(CC(=O)NCc1ccc(F)cc1)C(=O)c1ccco1` across the screens: i, 2.09
`C[C@H](NC(=O)c1nc[nH]c1C(=O)NCC(=O)OCc1ccccc1)c1ccccc1` across the screens: i, -0.18
`Cc1cc(Oc2cnn(C(C)(C)C)c(=O)c2Cl)cc(C(C)C)c1` across the screens: -10.7*, -2.62*
`O=C(O)CC1CCCC(c2ccccc2)C1=O` (configuration not stated) across the screens: i, -0.01

Continued:
item	KCNQ2 inh	KCNQ2 inh baseline	Compound
61	i	-0.09	O=C(Nc1ccc(NC(=O)c2ccc(S(=O)(=O)c3ccccc3)cc2)cc1)c1ccccc1
62	i	0.91	CC(Sc1nnc2ccccn12)C(=O)Nc1ccc(Cl)cn1 (configuration not stated)
63	i	0.01	Cc1ccc(OCCCn2c(=O)oc3ccccc32)cc1
64	i	0.06	Cc1ccc(C2CC(c3cccc(C)c3)n3ncnc3N2)cc1 (configuration not stated)
65	i	0.32	CC1CC(C)CN(CCCNC(=O)c2csc3c2CCCC3)C1 (configuration not stated)
66	i	0.1	CN(CC(=O)Nc1ccc(N2CCOCC2)cc1)CC(=O)Nc1ccccc1[N+](=O)[O-]
67	i	-0.72	CCNc1ccc(S(=O)(=O)N(C)C)cc1NCC(=O)Nc1c(F)cccc1F
68	-6.98*	-0.11*	CSCCC(NC(=O)COc1ccccc1)C(=O)N1CCCC(C(F)(F)F)C1 (configuration not stated)
69	i	-0.38	O=C(Cn1cnnn1)NCc1ccccc1
70	i	0.31	O=C(Nc1cccc(Cl)c1)ON=C1c2ccccc2-c2ccccc21
71	i	-0.02	CC(C)c1ccc(NC(=O)C(c2ccccc2)N2CCOCC2)cc1 (configuration not stated)
72	i	0.05	COc1cc(-c2cc(=O)c3ccccc3o2)ccc1O
73	i	-1.52	Oc1ccccc1-c1cc(-c2ccco2)[nH]n1
74	i	-1.09	O=C(CSc1nnc(-c2ccncc2)o1)Nc1ccccc1Cl
75	i	-0.09	COc1ccc(Nc2nnc(SCC(=O)N3CC(=O)Nc4ccccc43)s2)cc1
76	i	0.43	CC(Oc1cccc(Cl)c1)C(=O)Nc1cc(S(=O)(=O)N2CCOCC2)ccc1N1CCCCC1 (configuration not stated)
77	i	1.84	Cc1cc(C2=NNC(=NC3CC3)SC2)c(C)n1-c1ccccc1F
78	i	-0.66	O=P(c1ccccc1)(c1ccccc1)c1nc(-c2ccc(Cl)cc2)oc1N1CCOCC1
79	i	-0.73	Cc1cc2ccccn2c1C(=O)c1ccccc1Br
80	i	-1.03	CC(NC(=O)c1cc(-c2ccncc2)nc2ccc(Br)cc12)C1CCCO1 (configuration not stated)
81	i	0.01	C=C(C)Cn1c(CCCNC(=O)C(C)(C)C)nc2ccccc21
82	i	-1.89	CSC1=NCCN1C(=O)c1ccc(C)cc1
83	i	-0.77	O=C1N(Cc2cccc(Cl)c2)C[C@@H]2C[C@@H](c3cccn3-c3ccccn3)N3CCC[C@@]123
84	i	0.23	CCOC(=O)N1CCN(S(=O)(=O)N(C)C)CC1
85	i	0.47	OC(COCc1ccccc1)CN1CCN(c2ccccc2)CC1 (configuration not stated)
86	i	-0.56	CCc1ccc(-c2cc(C)no2)cc1S(=O)(=O)NCCN1CCC(C)CC1
87	i	-0.99	Cc1cc(C(=O)NNS(=O)(=O)c2ccc(C(C)(C)C)cc2)nn1C(C)(C)C
88	i	0.76	CCc1ccc(N2C(=O)C3C4C=CC(CC4)C3C2=O)cc1 (configuration not stated)
89	i	-0.79	CNC(=O)COC(=O)c1[nH]c(C)c(C(C)=O)c1C
90	i	0.41	COC(=O)c1ccc(-c2ccco2)n1Cc1cccc(C)c1

item	KCNQ2 inh	KCNQ2 inh baseline	Compound
91	i	-0.14	CC(NC(=O)c1cc(COc2ccc3ncccc3c2)on1)c1ccc(F)cc1 (configuration not stated)
92	i	0.23	Cc1occc1-c1nnc(SCC(=O)O)n1-c1ccccc1
93	i	1.14	COCCCNC(=O)CN1C(=O)COc2ccc(S(=O)(=O)N3CC(C)CC(C)C3)cc21 (configuration not stated)
94	i	-0.07	COC(=O)C1=C(N)OC2=C(C(=O)CCC2)C1c1cccnc1 (configuration not stated)
95	i	-0.51	COc1ccccc1N(CC(=O)Nc1c(C)n(C)n(-c2ccccc2)c1=O)S(=O)(=O)c1ccc(C)cc1
96	i	0.24	O=C1NC(=Nc2ccc(F)cc2)CS1
97	i	0.48	Cc1ccccc1CN1CCN(S(=O)(=O)c2cccc3nsnc23)CC1
98	i	0.4	COc1ccc(S(=O)(=O)C(C#N)c2nc3ccccc3nc2N2CCCCC2)cc1 (configuration not stated)
99	i	0.91	O=c1n(Cc2ccccc2)nc2n1-c1ccccc1SC2
100	i	0.16	CC(NC(=O)c1ccnn1C)C1CCCO1 (configuration not stated)
101	i	-1.49	C/C(=N\Nc1ccccc1[N+](=O)[O-])c1ccccc1O
102	i	-0.5	CCOc1ccc(S(=O)(=O)c2cn(C)c3cc(OC)c(OC)cc3c2=O)cc1
103	i	-0.09	CCOC(=O)c1c(C)[nH]c(C(=O)COC(=O)CCS(=O)(=O)c2ccc(C)cc2)c1C
104	i	0.06	COC(OC)c1ccc(C#N)c(SCc2ccc(C)cc2)n1
105	i	-2.09	COc1ccccc1Nc1nc2ccccc2[nH]1
106	i	1.16	O=C(Cn1c(=O)c2sccc2n(Cc2cccc([N+](=O)[O-])c2)c1=O)NCCc1ccccc1
107	i	-1.01	COCCn1c(SCC(=O)c2ccccc2)nc2c(c1=O)SC(C)C2 (configuration not stated)
108	i	-0.29	C=CCN1C(=O)NC(c2ccc(OC)cc2)(C(F)(F)F)S/C1=C(\C#N)c1nnc(N2CCOCC2)n1-c1ccccc1 (configuration not stated)
109	i	-0.81	COc1ccc(S(=O)(=O)N2CCOC2CNC(=O)C(=O)NCc2ccco2)cc1C (configuration not stated)
110	i	0.03	CCN(CC)C(=O)COc1ccc2c(-c3ccc(OC)cc3)cc(=O)oc2c1
111	i	0.56	CCCCN(C(=O)c1ccc(S(=O)(=O)N2CCCCC2)cc1)C1CCS(=O)(=O)C1 (configuration not stated)
112	i	0.51	Cc1ccc(C(=O)N2CCCC(C(=O)Nc3cccc(-c4ccc(F)cc4)c3)C2)cn1 (configuration not stated)
113	i	0.22	CC1=Nc2ccccc2/C1=C/c1nc(-c2ccc(C)s2)oc1O
114	i	2.54	Cc1ccc(C(=O)NCc2ccc3c(c2)OCO3)c(C)c1
115	i	-0.99	O=S(=O)(CCc1nc2ccccc2s1)c1ccc2ccccc2c1
116	i	0.81	CC(=O)N1CCN(C(=O)CNC(=O)c2ccc(Br)o2)CC1
117	i	-0.07	Cc1ccc(S(=O)(=O)N2CCCN(S(=O)(=O)c3ccc4c(c3)OCCO4)CC2)cc1

Down the list, quoted from above.
KCNQ2 inh baseline, compounds 111 to 115: 0.56, 0.51, 0.22, 2.54, -0.99
KCNQ2 inh, compounds 111 to 115: i, i, i, i, i
